# Methyltransferases = Primary Screen for Target Class Profiling of Small Molecule Inhibitors of Methyltransferases; purified enzyme, MTase-Glo SAH luminescence; active compounds read low; calls only at 40 µM; 3.9% of 25,000 active; active = -50% or lower on at least one of six enzymes; inconclusive = the cases between; inactive = as a rule above -30% on all six;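 further: enzymes were COMT GAMT GNMT HNMT NNMT and PNMT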
#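 Each enzyme was reacted with SAM and its substrate, with compounds tested once at 40 uM; SAH formed was read by MTase-Glo luminescence.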
# Calls only; i = inactive; ? = inconclusive; + = active, no number; ! = repeats disagree. On the % scale 0 is the no-effect control and ±100 the full control effect. Not all compounds are listed; count on the stated rates, not on these rows.
SMILES,Methyltransferases
O=C(c1ccc(F)c(F)c1Nc1ccc(I)cc1F)N1CC(O)(C2CCCCN2)C1 (centres undefined),i
CCCC1(c2ccccc2)NC(=O)N(CC(=O)N(C)Cc2c(F)cccc2Cl)C1=O (centres undefined),?
O=C(N[C@H](Cc1ccccc1)C(=O)O)c1sc2cc(F)ccc2c1Cl,i
CNCc1ccc(-c2[nH]c3cc(F)cc4c3c2CCNC4=O)cc1,+!
CC1(C)CC(=O)c2c(C(F)(F)F)nn(-c3ccc(C(N)=O)c(NC4CCC(O)CC4)c3)c2C1 (centres undefined),?
COCCOc1ccc(N2CCN(CCn3ncc4c3nc(N)n3nc(-c5ccco5)nc43)CC2)cc1,i
Cc1c(C(=O)Nc2ccc(N3C[C@@H](C)O[C@@H](C)C3)nc2)cccc1-c1ccc(OC(F)(F)F)cc1,?
COCC(=O)NC/C=C/c1ccc2ncnc(Nc3ccc(Oc4ccc(C)nc4)c(C)c3)c2c1,?
c1cn2cc(-c3ccc4cn[nH]c4c3)nc(Nc3ccc(N4CCOCC4)cc3)c2n1,+
CNc1ccc([N+](=O)[O-])cc1-n1cnc(-c2ccc(C(F)(F)F)cc2)c1,?
O=C(CCc1ccccc1)N1CCC(O)(Cn2cnc3cc(Cl)ccc3c2=O)CC1,i
CCOc1cc(N2CCC(O)CC2)ccc1Nc1ncc2c(n1)N(C1CCCC1)CCC(=O)N2C,?
Nc1ncnc2c1c(-c1cccc(OCc3ccccc3)c1)cn2C1CC(CN2CCC2)C1 (centres undefined),+
CN1[C@@H]2CC[C@H]1CC(NC(=O)n1c(=O)[nH]c3ccccc31)C2 (some centres undefined),i
CNC(=O)c1cc(Oc2ccc(NC(=O)Nc3ccc(Cl)c(C(F)(F)F)c3)c(F)c2)ccn1,?
Cc1cc(F)ccc1-c1nc(NCCN=C(N)NC#N)nc2c1ccc(=O)n2-c1c(F)cccc1F,i
CC(=O)NCC1CN(c2ccc(-c3ccc(CNCc4cn[nH]n4)cc3)c(F)c2)C(=O)O1 (centres undefined),i
O=C(Nc1ccccc1Br)NC1CCN(c2ccc(C(F)(F)F)cn2)C1 (centres undefined),?
COc1cc2c(NC3CCN(CC4CCCCC4)CC3)nc(N3CCCN(C(C)C)CC3)nc2cc1OCCCN1CCCCC1,+!
Cc1cn2c(n1)Cc1ccc(Cl)cc1C(c1ccc(N)cc1)=N2,?
CN(C)C(=O)c1cc2cnc(Nc3ccc(N4CCNCC4)cn3)nc2n1C1CCCC1,?
Cc1nnc(-c2ccc3occ(-c4ccc(S(C)=O)cc4)c3c2)o1 (centres undefined),i
NC(=O)c1cccc2[nH]c(-c3ccc([C@H]4CCCN4)cc3F)nc12,+
Cc1cccc(NC(=O)CN2CCC(c3ccccn3)CC2)c1,i
CNS(=O)(=O)CCc1ccc2[nH]cc(C3CCN(C)CC3)c2c1,i
COc1cc2nccc(Oc3ccc(NC(=O)C4(C(=O)Nc5ccc(F)cc5)CC4)cc3)c2cc1OC,i
CCO[C@@H]1OC(=O)C[C@@H]1NC(=O)[C@@H]1CCCN1C(=O)[C@@H](NC(=O)c1ccc(N)c(Cl)c1)C(C)(C)C,i
CCOC(=O)CCN(C(=O)c1ccc2c(c1)nc(CNc1ccc(C(=N)N)cc1)n2C)c1ccccn1,+
FC(F)(F)Oc1ccc(-c2ccc3nnc(C(F)(F)F)n3c2)cc1,i
CC1(C)[C@@H](O[C@H]2O[C@H](C(=O)O)[C@@H](O)[C@H](O)[C@H]2O[C@@H]2O[C@H](C(=O)O)[C@@H](O)[C@H](O)[C@H]2O)CC[C@]2(C)[C@H]3C(=O)C=C4[C@@H]5C[C@@](C)(C(=O)O)CC[C@]5(C)CC[C@@]4(C)[C@]3(C)CC[C@@H]12,?
C[C@@H](Oc1ccc2[nH]nc(/C=C/c3cnn(CCO)c3)c2c1)c1c(Cl)cncc1Cl,?
CC1=CC[C@]2(C(=O)O[C@@H]3O[C@H](CO[C@@H]4O[C@H](CO)[C@@H](O[C@@H]5O[C@@H](C)[C@H](O)[C@@H](O)[C@H]5O)[C@H](O)[C@H]4O)[C@@H](O)[C@H](O)[C@H]3O)CC[C@]3(C)C(CCC4[C@@]5(C)C[C@@H](O)[C@H](O)[C@@](C)(CO)C5CC[C@]43C)C2C1C (some centres undefined),i
Cc1nn(C)c2c1C(c1ccc(C(F)(F)F)cc1)C(C#N)=C(N)O2 (centres undefined),i
CC(C)NNC(=O)c1ccncc1,i
Cc1cccc(N(C)C(=S)Oc2ccc3c(c2)CCC3)c1,i
COc1cc(-c2cc(-c3ccc(N4CCNCC4)cc3)cnc2C)cc(OC)c1OC,?
COc1cc2nccc(Oc3ccc(NC(=O)NC4CC4)c(Cl)c3)c2cc1C(N)=O,i
NC(=O)c1cccc2[nH]c(-c3ccc(C4CCCN4)cc3F)nc12 (centres undefined),+
CC(C)Oc1ccc(-c2nc(-c3cccc4c3CCC4NCCC(=O)O)no2)cc1C#N (centres undefined),i
CN(C)c1nc(NC2CCC(NCCc3ccc(Br)cc3OC(F)(F)F)CC2)nc2ccccc12 (centres undefined),+
CCn1c(-c2nonc2N)nc2c(C#CC(C)(C)O)ncc(OCC3CCCNC3)c21 (centres undefined),+
CCCn1c(=O)c2[nH]c(-c3cnn(Cc4cccc(C(F)(F)F)c4)c3)nc2n(CC)c1=O,i
Cc1cc(C(=O)Nc2cc(Oc3ccc4nc(NC(=O)C5CC5)cn4n3)ccc2C)n(C)n1,i
C[C@@H]1CC[C@]2(C(=O)O)CC[C@]3(C)C(=CCC4[C@@]5(C)C[C@@H](O)[C@H](O)[C@@](C)(CO)C5CC[C@]43C)C2[C@H]1C (some centres undefined),i
O=C(c1ccccn1)N(Cc1cccs1)C1(C(=O)NC2CCCCC2)CCCCC1,i
Cc1ncc(-c2ccnc(Nc3ccc(S(C)(=O)=O)cc3)n2)n1C(C)C,i
CCCC(CCC)C(=O)NCc1ccc2c(cnn2-c2ccccc2OC)c1,i
On1ncc(C2CCNCC2)c1-c1cccc(-c2ccccc2)c1,i
Cc1ccc(C(=O)Nc2cccc(C(F)(F)F)c2)cc1-c1ccc2nc(NCCN3CCOCC3)ncc2c1,i
CCOC(=O)[C@H](CCc1ccccc1)N[C@@H](C)C(=O)N1C(=O)N(C)C[C@H]1C(=O)O,?
CCc1ccccc1OC[C@@H](O)CN[C@H]1CCCc2ccccc21,i
CCc1cc2c(cc1N1CCC(N3CCOCC3)CC1)C(C)(C)c1[nH]c3cc(C#N)ccc3c1C2=O,i
CN(c1nccc(=O)[nH]1)C1CCN(c2nc3ccccc3n2Cc2ccc(F)cc2)CC1,?
CS(=O)(=O)NCC1CCC(Nc2nc3c(s2)CCSc2ccccc2-3)CC1 (centres undefined),i
CNc1nccc(-c2cccnc2Oc2cc(C(=O)Nc3cccc(C(F)(F)F)c3)ccc2C)n1,i
C[C@H]1[C@H](C)CC[C@]2(C(=O)O)CC[C@]3(C)C(=CC[C@@H]4[C@@]5(C)C[C@@H](O)[C@H](O)[C@@](C)(CO)[C@@H]5CC[C@]43C)[C@H]12,i
CNc1ccc([N+](=O)[O-])c(Nc2ccc3[nH]ncc3c2)n1,i
NC(N)=NCCC[C@H](NC(=O)c1sccc1NS(=O)(=O)c1cccc2nsnc12)C(=O)O,i
O=C(CC1CC(c2ccc(F)cc2F)=NO1)N1CCOCC1 (centres undefined),i
CN(C)CCn1cc(S(=O)(=O)c2cccc(F)c2)c2cccnc21,i

# As a working copy, 2 of the compounds above.
SMILES,Methyltransferases
O=C(CC1CC(c2ccc(F)cc2F)=NO1)N1CCOCC1 (centres undefined),i
CN(C)CCn1cc(S(=O)(=O)c2cccc(F)c2)c2cccnc21,i

# Additional records follow.
SMILES,Methyltransferases
O=C(Nc1cc(-c2ccccc2)nn1-c1ccccc1F)c1ccc([N+](=O)[O-])cc1,i
Oc1cc(-c2nc(-c3ccccc3)[nH]c2-c2ccncc2)ccc1Cl,?
CCOCc1cc(OC)c(-c2ccc(C[C@H](NC(=O)c3c(F)cccc3F)C(=O)O)cc2)c(OC)c1,i
O=C(O)c1ccccc1NC(=O)N1CCC(c2ccccc2C(F)(F)F)CC1,i
O=C(NCC1(N2CCN(c3ccccc3)CC2)CCOCC1)c1cccnc1Sc1ccccc1,i
Cc1cc(C)c(-n2cc(C)c3c(Cl)nc(C)nc32)c(C)c1,i
OC(CNCCc1c[nH]c2ccccc12)Cn1c2ccccc2c2ccccc21 (centres undefined),?
CC#CCn1c(N2CCCC(N)C2)nc2c1c(=O)n(Cc1nc(C)c3ccccc3n1)c(=O)n2C (centres undefined),?
C=CC(=O)N1CCN(C(=O)CNc2cc(-c3ccccc3Cl)c(Cl)cc2OC)CC1,i
CN1C(=O)c2cc(C(=O)NCc3ccccc3)nn2CC1(C)C(=O)NCc1ccccc1 (centres undefined),i
Cn1cnc(-c2cc3nccc(Oc4ccc(NC(=S)NC(=O)Cc5ccccc5)cc4F)c3s2)c1,i
CCCCOc1cc(C(=O)OCCN(CC)CC)ccc1N,i
Cc1nnc(-c2sc(NC(=O)[C@H](C(C)C)n3c(=O)[nH]c4ccccc4c3=O)nc2C)o1,i
COCCOc1ccc2c(c1)ncn2-c1ccc2cccc(N3CCC(N)CC3)c2n1,+
O=C(O)c1ccc(Nc2ncc3c(n2)-c2ccc(Cl)cc2C(c2c(F)cccc2F)=NC3)cc1,?
NC(=O)[C@H]1CCS[C@@H]2C[C@]3(CCCN3C(=O)Cc3ccc(NC(=O)COc4ccc(Cl)cc4Cl)cc3)C(=O)N12,i
Cn1ccc2cc3c(cc21)CCN3C(=O)Nc1cccnc1,+
COc1ccccc1CN[C@@H]1CCCN[C@@H]1c1ccccc1,i
Cc1c(-c2ccnn2C)cc(C(=O)NCc2ccc(S(C)(=O)=O)cn2)c(=O)n1-c1cccc(C(F)(F)F)c1,i
CCn1cc(C(=O)O)c(=O)c2cc(F)c(N3CCNC(C)C3)c(F)c21 (centres undefined),i
CCOC(=O)N1CCC(N2CCC[C@@H](NC(=O)c3ccccc3C)C2)CC1,i
CC(=O)N(C)C1(c2ccccc2)CCN(CCC[C@]2(c3ccc(Cl)c(Cl)c3)CCCN(C(=O)c3ccccc3)C2)CC1,+
CN(C)C(=O)CNC(=O)Cc1ccccc1,i
CCN1CCN(c2ccc(Nc3cc(N(C)C(=O)Nc4c(Cl)c(OC)cc(OC)c4Cl)ncn3)cc2)CC1,?
CCOc1nc2cccc(C(=O)O)c2n1Cc1ccc(-c2ccccc2-c2noc(=O)[nH]2)cc1,i
COc1ccc(-c2ccc3c(N4CCOCC4C)nc(N4CCOCC4C)nc3n2)cc1CO (centres undefined),?
O=C(CCc1nnc2n(Cc3ccc(Cl)cc3)c(=O)c3ccccc3n12)NCCC1=CCCCC1,i
O=C(NC1(c2ccccc2)CC1)c1c(CN2CCC(N3CCCCC3)CC2)c(-c2cccc(C(F)(F)F)c2)nc2cc(Br)ccc12,?
O=C(c1cc(Cc2n[nH]c(=O)c3ccccc23)ccc1F)N1CCCNCC1,i
CCN(CC)CCN(Cc1ccc(-c2ccc(C(F)(F)F)cc2)cc1)C(=O)Cn1c(SCc2ccc(F)cc2)nc(=O)c2c1CCC2,+
NC(Cc1c[nH]c2ccc(O)cc12)C(=O)O (centres undefined),i
COc1ccc(S(=O)(=O)N2CCC[C@H]2C(=O)Nc2cc(C)cc(C)c2)cc1,i
COc1ccc2c(c1)C[C@H](C(=O)Nc1ccc(-c3cn[nH]c3)cc1OCCN(C)C)CO2,+
COc1cc(CCc2cc(NC(=O)c3ccc(N4C[C@@H](C)N[C@@H](C)C4)cc3)n[nH]2)cc(OC)c1,?
Cc1cc2c(F)c(Oc3ncnn4cc(OCC(C)O)c(C)c34)ccc2[nH]1 (centres undefined),i
CCC(=O)Nc1cccc(Oc2nc(Nc3ccc(N4CCN(C)CC4)cc3OC)ncc2Cl)c1,i
C=Cc1cc(O)cc2nc(-c3ccc(O)c(F)c3)oc12,+
Cc1cc(Nc2cc(N3CCN(C)CC3)nc(/C=C/c3ccccc3)n2)n[nH]1,?
Cc1cc(C)cc(-c2cnc3cc(Cl)c(-c4cccc(O)c4)cc3c2OCCCN)c1,+
CN(c1ccc(NC(=O)Nc2ccccc2)cc1)S(=O)(=O)c1cnn(-c2ccc(F)cc2)c1,i
O=C(Nc1ccc(N2CCC(C(=O)N3CCOCC3)CC2)cc1)c1cnc(Oc2ccccc2)nc1,i

# Filtered by structure: the compounds so far containing sulfur.
SMILES,Methyltransferases
O=C(N[C@H](Cc1ccccc1)C(=O)O)c1sc2cc(F)ccc2c1Cl,i
Cc1nnc(-c2ccc3occ(-c4ccc(S(C)=O)cc4)c3c2)o1 (centres undefined),i
CNS(=O)(=O)CCc1ccc2[nH]cc(C3CCN(C)CC3)c2c1,i
Cc1cccc(N(C)C(=S)Oc2ccc3c(c2)CCC3)c1,i
O=C(c1ccccn1)N(Cc1cccs1)C1(C(=O)NC2CCCCC2)CCCCC1,i
Cc1ncc(-c2ccnc(Nc3ccc(S(C)(=O)=O)cc3)n2)n1C(C)C,i
CS(=O)(=O)NCC1CCC(Nc2nc3c(s2)CCSc2ccccc2-3)CC1 (centres undefined),i
NC(N)=NCCC[C@H](NC(=O)c1sccc1NS(=O)(=O)c1cccc2nsnc12)C(=O)O,i
CN(C)CCn1cc(S(=O)(=O)c2cccc(F)c2)c2cccnc21,i
O=C(NCC1(N2CCN(c3ccccc3)CC2)CCOCC1)c1cccnc1Sc1ccccc1,i
Cn1cnc(-c2cc3nccc(Oc4ccc(NC(=S)NC(=O)Cc5ccccc5)cc4F)c3s2)c1,i
Cc1nnc(-c2sc(NC(=O)[C@H](C(C)C)n3c(=O)[nH]c4ccccc4c3=O)nc2C)o1,i
NC(=O)[C@H]1CCS[C@@H]2C[C@]3(CCCN3C(=O)Cc3ccc(NC(=O)COc4ccc(Cl)cc4Cl)cc3)C(=O)N12,i
Cc1c(-c2ccnn2C)cc(C(=O)NCc2ccc(S(C)(=O)=O)cn2)c(=O)n1-c1cccc(C(F)(F)F)c1,i
CCN(CC)CCN(Cc1ccc(-c2ccc(C(F)(F)F)cc2)cc1)C(=O)Cn1c(SCc2ccc(F)cc2)nc(=O)c2c1CCC2,+
COc1ccc(S(=O)(=O)N2CCC[C@H]2C(=O)Nc2cc(C)cc(C)c2)cc1,i
CN(c1ccc(NC(=O)Nc2ccccc2)cc1)S(=O)(=O)c1cnn(-c2ccc(F)cc2)c1,i

# Compound activity from PubChem.
